# FGF22 binding: binders of human FGF22 protein, primary screen, FGF22 synaptogenesis inhibitor project, biophysical, thermal shift, single point; recombinant FGF22 thermal shift, SYPRO orange fluorescence; percent of sucrose octasulfate shift, DMSO zero; calls only at 9.99 µM; hit rate 1.5% among 340,000;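 active means melting point raised past a set limit in the mean and every replicate; inconclusive means no clear call; three in four hits are not shown here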
# Target sequence (Q9HCT0 whole entry, looked up): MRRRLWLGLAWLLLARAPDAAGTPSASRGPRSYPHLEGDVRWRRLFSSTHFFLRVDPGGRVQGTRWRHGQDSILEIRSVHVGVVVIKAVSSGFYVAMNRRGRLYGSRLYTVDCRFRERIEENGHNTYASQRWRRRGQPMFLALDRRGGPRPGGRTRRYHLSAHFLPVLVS
# E coli growth: E. coli growth inhibition, primary screen, OD600 | Escherichia coli growth, 23 h; hits give low values | OD600 absorbance (concentration not given with the values) | hit rate 0.21% among 330,000;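 active means OD600 absorbance below the run mean of sample wells minus 3.6 SD, in any replicate, cut at about 0.56 in these data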;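 further: stock transfer was 300 nL into about 60 µL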
# ALR H2O2 inh: inhibitors of human ALR sulfhydryl oxidase, primary screen, biochemical, H2O2 detection, HRP-luminol luminescence, single point; FAD-linked sulfhydryl oxidase ALR (Homo sapiens), P55789; purified ALR, DTT oxidation; inhibition, % (concentration not given with the values); hit rate 3.8% among 290,000;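 active means mean and each replicate at 75% or more; inconclusive means only one of the two met; inactive means neither met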;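 further: stock transfer was 7.5 nL into about 7.5 µL; 0% = neutral wells and 100% = wells with inactivated enzyme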
# Target sequence (P55789 whole entry, looked up): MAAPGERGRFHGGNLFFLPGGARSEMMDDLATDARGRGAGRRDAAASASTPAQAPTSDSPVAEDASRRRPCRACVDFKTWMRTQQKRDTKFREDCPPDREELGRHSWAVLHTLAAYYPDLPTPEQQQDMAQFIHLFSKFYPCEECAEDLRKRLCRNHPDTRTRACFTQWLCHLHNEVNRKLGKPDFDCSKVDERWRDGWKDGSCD
# UCH37 DUB inh: inhibitors of human UCH37 deubiquitinase, primary screen, biochemical, Ub-AMC cleavage, fluorescence | Ubiquitin carboxyl-terminal hydrolase isozyme L5 (Homo sapiens), Q9Y5K5 | hit rate 0.33% among 330,000 | inhibition, % (no concentration beside the values) | purified proteasome/UCH37 | AID 588478, 2011;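 active means mean of two replicates above 20%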;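 further: 0% = compound-free wells with enzyme and 100% = wells lacking proteasome; stock transfer was 100 nL into about 20 µL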
# Target sequence (Q9Y5K5 whole entry, looked up): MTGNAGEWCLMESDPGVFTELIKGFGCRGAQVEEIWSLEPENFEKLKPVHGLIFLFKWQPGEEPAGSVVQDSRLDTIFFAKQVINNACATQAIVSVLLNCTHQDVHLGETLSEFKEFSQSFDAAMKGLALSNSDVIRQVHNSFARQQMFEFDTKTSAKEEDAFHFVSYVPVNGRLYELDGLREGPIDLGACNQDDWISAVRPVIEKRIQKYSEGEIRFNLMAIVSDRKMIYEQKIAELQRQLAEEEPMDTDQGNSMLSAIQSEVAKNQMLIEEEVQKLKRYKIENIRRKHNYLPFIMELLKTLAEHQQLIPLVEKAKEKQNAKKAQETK
#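 Schedule: 30 min plus 25 min, room temperature / Material: human UCH37 within purified proteasomes / Technique: AMC fluorescence intensity at 355/460 nm / Buffer or medium: pH 7.4 Tris-HCl (50 mM) with ovalbumin, ATP-MgCl2, DTT / Controls: wells without proteasome as full block, compound-free enzyme plus substrate as uninhibited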
# rRNA inh HTS: reduced GFP signal of wild-type E. coli, primary screen, bacterial rRNA inhibitor project, GFP/RFP fluorescence, OD600, single point; E. coli WT GFP vs humanized-ribosome RFP mutants, 24 h; hits give low values; DMSO median 0, no signal -100; GFP signal change (wild-type ribosome), % (no concentration beside the values); hit rate 1.6% among 350,000; AID 720706, 2013;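 active means significant combined selectivity score with lowered wild-type GFP, culture density cut under 30%, mutant RFP and density less affected; inactive means any of these conditions unmet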; further: one replicate is shown; some compounds called inactive have numbers as strong as hits
# HNF4A DNA FP: change in binding of human HNF4A to DNA, primary screen, biochemical, fluorescence polarization, FITC-DNA; activity change, % at 10 µM; hit rate 0.3% among 360,000; Hepatocyte nuclear factor 4-alpha (Homo sapiens), P41235; 1 h; in the data active means activity change above about 30%, passing the limit was not always enough;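 further: controls were the assay level and a saturating level of protein; the project sought stronger binding though the title names inhibitors; some compounds called inactive have numbers as strong as hits; positive values seem to mean higher polarization but the record does not say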
# Beta2AR agonist: beta2AR agonists driving receptor internalization, primary screen, cell-based, FAP fluorogen, flow cytometry | Beta-2 adrenergic receptor (Homo sapiens), P07550 | Am2.2-beta2AR cells; reference of the scale not given here | response, % (test concentration not listed) | hit rate 0.43% among 340,000 | AID 504454, 2011;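 active means response above a set limit, near 3 SD of response in nonfluorescent compounds, cut at about 42% in these data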;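 further: stock transfer was 100 nL into about 11 µL; a reference agonist was the positive control; negative values mostly stem from fluorescent compounds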
# rRNA inh HTS OD600: recorded beside rRNA inh HTS, whose call it bears; OD600 change, %; measured here: OD600 growth;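 optical density of the mix in the first replicate; 0 = DMSO median and -100 = no signal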
# rRNA inh HTS RFP: recorded beside rRNA inh HTS, whose call it bears; RFP signal change, %; measured here: RFP humanized mutant strains;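 first replicate; 0 = DMSO median and -100 = no signal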
# The depositor's hits bear a star; i = inactive; ? = inconclusive; / = not tested or not shown; & = joins results of further samples.
SMILES,FGF22 binding,E coli growth,ALR H2O2 inh,UCH37 DUB inh,rRNA inh HTS,rRNA inh HTS OD600,rRNA inh HTS RFP,HNF4A DNA FP,Beta2AR agonist
CCOc1ncccc1C(=O)N=c1sccn1C,/,0.635,-3.2,4.8,3.3,7.9,2.0,1.0,-4.6
CCOCCCNCc1cc(Br)ccc1OCc1ccccc1,i,0.668,16.5,2.0,-11.5,-41.3,29.1,-0.4,7.5
CC(=O)OCC(=O)Nc1c(C)cc(C)cc1C,i,0.701,4.6,2.5,8.4,10.5,1.2,-2.0,0.8
Cc1cccn2cc(CSc3ccccc3N)nc12,/,0.647,81.4*,5.2,/,/,/,-0.7,-3.7
CN=C(Nc1ccc(Cl)cc1)c1ccc(C(F)(F)F)cc1,/,0.654,-0.4,1.4,/,/,/,1.1,-4.8
O=C1CCCC(=O)C1C(=O)C1CCN(S(=O)(=O)c2ccccc2)CC1,i,0.673,-17.5,0.4,8.2,1.3,1.6,0.3,-4.3
Cc1csc(SCC(=O)NCc2cccs2)n1,i,0.669,-10.6,1.8,-0.8,6.7,-2.2,4.3,3.5
O=C(COC(=O)c1ccc([N+](=O)[O-])o1)NCCc1ccccc1,i,0.658,-11.0,12.1,-8.6,-13.1,-3.5,10.5,1.4
CN(Cc1c(C(=O)N/N=C/c2ccccc2)nnn1-c1nonc1N)c1ccccc1,i,/,0.4,/,-27.2*,-11.7*,-0.5*,-3.8,-10.3
Cc1nc2scc(C)n2c(=O)c1S(=O)(=O)Nc1ccc(F)cc1,i,0.686,-2.2,3.9,5.6,1.6,1.8,-0.4,5.8
Cc1ccccc1Cn1c(=O)n(C)c(=O)c2sccc21,i,0.617,-12.4,-0.9,7.9,5.3,-3.0,3.3,2.6
O=[N+]([O-])c1cccc(S(=O)(=O)NCCc2cccs2)c1,i,0.663,-8.7,1.7,-5.0,5.6,-0.8,-1.0,-3.7
CCOC(=O)C1CCCN(C2CC(=O)N(c3ccc(C(C)C)cc3)C2=O)C1 (stereo unspecified),i,0.672,-23.4,1.9,9.3,10.4,0.4,-1.5,1.3
COc1ccc(C(=O)c2cc([N+](=O)[O-])ccc2N2CCCC2)cc1,/,0.707,-0.6,6.0,/,/,/,5.0,1.1
COc1ccccc1N(CC(O)Cn1ccnc1C)S(=O)(=O)c1ccc(C)cc1 (stereo unspecified),i,0.665,/,0.9,-14.2,-12.7,1.1,1.8,3.8
CCN(Cc1ccncc1)C(=O)c1cc(COc2ccc(F)cc2Cl)on1,i,0.693,-1.1,0.3,-7.3,-24.1,-4.9,0.2,-0.5
O=C1CN(CC(=O)NC(=O)NCc2ccccc2)CCN1,/,0.699,1.9,1.0,/,/,/,2.3,6.7
CCNc1nc(NC(C)C)nc(OCCNS(=O)(=O)c2cc(C)ccc2C)n1,/,0.698,/,3.7,/,/,/,0.8,-2.6
COc1ccc([N+](=O)[O-])cc1N(CC(=O)NC1CCCC1)S(C)(=O)=O,i,0.715,-10.0,3.6,6.1,6.1,0.6,-1.7,-0.8
O=C(NCCO)c1c(O)c2cccc3c2n(c1=O)CC3,/,0.66,1.1,-8.2,/,/,/,-0.1,4.3
Cc1cccc(C)c1NC(=S)N1CCCN(Cc2ccc(F)cc2)C1,i,0.672,1.7,2.1,-2.6,-0.6,-6.5,-0.5,-6.6
CC(C)(C)NC(=O)c1cc(NC(=O)c2cccs2)cc(NC(=O)c2cccs2)c1,/,0.677,8.6,1.1,/,/,/,4.2,-15.6
COc1ccc2sc(-c3ccccc3OC)c(-c3ccc(SC)cc3)c2c1,i,/,/,/,31.4,19.9,0.6,0.6,/
COc1ccc(S(=O)(=O)NC(=O)C2(C)CCN2C(=O)CCC2CCCC2)cc1OC (stereo unspecified),i,/,/,/,7.0,9.3,-1.8,2.1,/
Cc1cc(Oc2ccc(-c3ccccc3)cc2)n2ncnc2n1,/,0.664,?,5.7,/,/,/,0.1,2.3
Cc1cc(NS(=O)(=O)c2ccc(NC(=O)c3cc4ccccc4o3)cc2)nc(C)n1,/,0.689,20.7,1.1,/,/,/,-2.6,-3.0
CN1CCN(Cc2nc(Cc3ccccc3)no2)CC1c1ccccc1 (stereo unspecified),i,0.704,-2.8,1.3,2.0,5.0,1.9,6.8,1.5
O=C(COC(=O)/C=C/c1ccc(F)cc1)NC1CCCCCC1,i,0.658,-0.5,0.8,10.2,15.2,3.5,-3.5,14.7
CC(=O)Nc1ccc(N/C=C/C(=O)c2ccc(C)cc2)cc1,i,0.654,-6.8,-6.1,-7.4,9.3,-3.0,5.8,4.7
Cc1ccc(S(=O)(=O)CC(=O)Nc2nc3ccc(S(N)(=O)=O)cc3s2)cc1,i,0.658,-2.9,-0.8,-5.3,5.3,0.6,0.3,-2.4

# Structures above that bear a hit mark in ALR H2O2 inh:
mol	FGF22 binding	ALR H2O2 inh	UCH37 DUB inh	rRNA inh HTS	rRNA inh HTS OD600	rRNA inh HTS RFP	Beta2AR agonist
Cc1cccn2cc(CSc3ccccc3N)nc12	/	81.4*	5.2	/	/	/	-3.7

# (continued)
SMILES,FGF22 binding,E coli growth,ALR H2O2 inh,UCH37 DUB inh,rRNA inh HTS,rRNA inh HTS OD600,rRNA inh HTS RFP,HNF4A DNA FP,Beta2AR agonist
CCCCCCNC(=O)Cc1c(O)c2ccccc2[nH]c1=O,/,0.74,4.5,-3.6,/,/,/,-1.1,11.2
OC(c1ccc(F)c(F)c1)c1nc(-c2ccncc2)cs1 (stereo unspecified),i,/,/,/,-26.9,-54.1,-17.3,-0.8,/
COC(=O)/C=C1\N/C(=N\c2nc(C)cc(C)n2)N(c2ccc(C)cc2)C1=O,i,0.663,/,4.1,-5.5,-3.1,-0.9,3.8,-1.0
CC(C)CC1Nc2ncnc(N3CCOCC3)c2N(Cc2ccc(Cl)cc2)C1=O (stereo unspecified),i,0.681,1.7,1.0,-22.1&-28.4,-50.5&-25.7,-3.9&-5.7,1.6&-1.5,0.2
OC(c1ccc(F)c(F)c1)c1nc(-c2cccc(F)c2)cs1 (stereo unspecified),i,/,/,/,-64.2,-78.5,-19.5,0.4,/
CSc1nc(SCC(=O)NCC2CCCO2)c2c3c(sc2n1)CN(C)CC3 (stereo unspecified),i,0.627,57.0,-41.0,/,/,/,/,-4.4
COc1ccc(NC(=O)Cn2nc(C(=O)O)c3ccccc3c2=O)cc1OC,i,0.651,-0.7,-1.6,2.5,3.9,-3.2,-0.3,7.4
O=C(O)CCc1ccc(-c2ccc(Cl)cc2)n1Cc1ccco1,/,0.706,46.6,2.0,/,/,/,0.7,17.3
Cc1cc2nc(-c3ccco3)cc(C(F)(F)F)n2n1,i,0.698,/,5.6,-5.1,0.9,0.2,-0.9,0.5
COC(=O)N/N=C/c1ccc([N+](=O)[O-])o1,/,/,-91.2,/,/,/,/,1.5,5.1
CCn1c(CCCc2ccc(OC)c(C)c2)n[nH]c1=S,i,0.683,7.3,-0.5,-12.1,-3.9,-1.1,-0.4,1.0
CCOc1ncccc1C(=O)Nc1nc(SC)ns1,/,0.651,-13.3,-6.4,1.8,2.9,-0.1,-4.5,-4.8
O=C(CN1CCN(Cc2ccccc2)CC1)NC(=O)NC1CCCCC1,/,0.75,2.9,0.9,/,/,/,-3.4,-10.1
Cc1cccc(-c2nc3c(c(=O)c4ccccc4n3C)c(=O)n2-c2ccccc2)c1,i,0.639,-1.1,7.1,-2.2,-2.6,-4.2,-0.1,0.0
COc1cc(C(=O)N/N=C/c2ccc(OC(=O)c3ccccc3)c(OC)c2)ccc1O,i,/,-2.4,/,-2.3,0.2,-1.4,0.7,17.7
COc1ccc(/C(C)=N/NC(=O)CNC(=O)c2ccco2)cc1,i,/,-16.1,/,-0.1,8.7,-2.0,4.4,-4.8
O=C(CSCc1cccc(Cl)c1)Nc1ccccc1-c1ccccc1,i,0.725,-5.0,4.0,-22.4,-20.7,-4.8,1.4,-5.4
CCOc1cccc2c1OC1(C)CC2NC(=O)N1c1cccc(Cl)c1 (stereo unspecified),/,0.732,-8.9,-1.0,/,/,/,-4.7,10.3
CC1(C)CC(=O)C2=C(C1)N(c1ccc(F)cc1)C(=O)C2(O)C(F)(F)F (stereo unspecified),/,0.612,-0.8,2.7,/,/,/,0.6,-7.2
O=Cc1c(Cl)nc2ccccn12,i,0.669,-8.8,5.0,5.8,14.7,2.6,2.5,-6.6
O=C(CNC(=O)c1cccc(S(=O)(=O)N2CCc3ccccc32)c1)Nc1ccc(F)c(F)c1F,i,0.655,/,4.4,-14.8,-14.8,5.9,-5.0,-6.7
O=C(CCNS(=O)(=O)c1ccccc1)OCc1nnc(-c2ccccc2)o1,i,0.624,0.9,0.9,3.2,5.5,-3.8,-0.2,-1.6
Cc1onc(-c2ccccc2)c1C(=O)N1CCOC12CCN(c1cccc(F)n1)CC2,i,0.687,-20.1,3.8,-26.6,-21.9,-3.4,3.5,-5.4
COc1ccc(COC(=O)c2cccc(S(=O)(=O)N3CCN(C(C)=O)CC3)c2)cc1F,i,0.678,/,0.9,-10.1,-10.3,1.9,-1.8,3.0
O=C(CCn1cncn1)N1CCCC(N2CCN(c3ccc(F)cc3)CC2)C1 (stereo unspecified),i,0.675,38.8,2.3,2.7,12.0,2.3,0.4,-1.3
Cc1cc(C)c(S(=O)(=O)N2CCCOC2CNC(=O)C(=O)NCCc2c[nH]c3ccccc23)c(C)c1 (stereo unspecified),/,0.737,-11.0,0.6,/,/,/,1.0,6.7
CC(C)c1ccc(NC(=O)CSc2n[nH]c(=O)n2-c2ccc3c(c2)OCCO3)cc1,i,0.636,-7.3,5.8,1.4,0.3,0.3,5.0,-1.0
C=CCN(c1ccccc1)S(=O)(=O)c1cccc(C(=O)NCC(c2ccc(OC)cc2)N2CCCCC2)c1 (stereo unspecified),i,0.678,/,4.3,-29.7,-36.4,2.4,-0.6,-0.2
COCCCNC(=O)CC(=O)N/N=C\c1ccc(SC)cc1,i,/,3.9,/,11.3,5.3,3.4,-2.5,-6.1
CC(C)c1cccc(C(C)C)c1NC(=O)COC(=O)C1=COCCO1,i,0.691,-1.6,1.1,7.3,1.9,0.5,0.0,3.7
CN1/C(=C\C(=O)c2cccnc2Cl)C(C)(C)c2ccccc21,i,0.727,-13.8,7.2,-26.2,-26.7,17.2,3.8,12.1
CCC(C)NC(=O)CCSc1ccc(C)cc1 (stereo unspecified),/,0.71,/,3.5,/,/,/,-2.7,-0.4
CN(C)S(=O)(=O)N1CCC(Oc2ccc(C(=O)N3C[C@H]4CC[C@H]3C4)cc2)CC1,i,0.69,2.3,4.8,0.6,-1.7,3.3,3.6,1.0
COc1ccc(C2SCCN2S(=O)(=O)c2ccc(NC(C)=O)cc2)cc1OC (stereo unspecified),i,0.659,8.6,-1.3,-7.1,-3.5,2.8,-1.3,29.1
CC(C)(C)NC(=O)CSc1nnc(-c2ccccn2)n1-c1ccccc1,i,0.721,-6.1,6.6,2.3,16.1,-1.3,1.1,-8.1
COc1ccc(C2C(=O)N(CCc3ccccc3)CC(=O)N2C2CCCC2)cc1 (stereo unspecified),/,0.627,-2.0,1.1,/,/,/,3.3,1.2

# Compound activity from PubChem.

# Only part of the results is shown. The share of hits here may be higher or lower than overall.
